ALR H2O2 inh = human ALR oxidase inhibition via reduced H2O2; 290,000 tested, 3.8% active; AID 485317; purified ALR, DTT oxidation, H2O2 HRP-luminol luminescence; inhibition, % (test concentration not listed);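 active means mean and each replicate at 75% or more; inconclusive means only one of the two met; inactive means neither met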;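 further: stock transfer was 7.5 nL into about 7.5 µL; 0% = neutral wells and 100% = wells with inactivated enzyme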
Target sequence (P55789 whole entry, looked up): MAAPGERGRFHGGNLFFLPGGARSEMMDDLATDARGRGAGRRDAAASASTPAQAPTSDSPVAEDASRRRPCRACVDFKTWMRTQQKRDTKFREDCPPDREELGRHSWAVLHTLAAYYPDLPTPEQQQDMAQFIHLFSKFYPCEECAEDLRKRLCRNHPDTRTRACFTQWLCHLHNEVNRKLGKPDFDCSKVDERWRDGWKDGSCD
Ecoli rRNA inh = inhibits bacterial ribosomal RNA function over humanized ribosomes. E. coli WT GFP vs humanized-ribosome RFP mutants, fluorescence, 24 h; stronger effect = lower value; DMSO median 0, no signal -100. GFP signal change (wild-type ribosome), % (no concentration beside the values). 350,000 tested, 1.6% active;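 active means significant combined selectivity score with lowered wild-type GFP, culture density cut under 30%, mutant RFP and density less affected; inactive means any of these conditions unmet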; further: one replicate is shown; some compounds called inactive have numbers as strong as hits
MLL AF4-AF9 inh = blocks AF4 peptide binding to human AF9. P42568. AlphaScreen, biotin-AF4 peptide binding to FLAG-AF9. 350,000 tested, 0.47% active. inhibition, % at 10 µM;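 active means every replicate reaching a set inhibition limit, whatever the replicate mean, cut at about 25% in these data; inconclusive means mean inhibition reaches that limit but some replicates miss it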;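 further: 0% = plate neutral control median and 100% = total signal loss; the record names both 10 and 1 µM as test concentration; the first replicate is given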
Target sequence (P42568 whole entry, looked up): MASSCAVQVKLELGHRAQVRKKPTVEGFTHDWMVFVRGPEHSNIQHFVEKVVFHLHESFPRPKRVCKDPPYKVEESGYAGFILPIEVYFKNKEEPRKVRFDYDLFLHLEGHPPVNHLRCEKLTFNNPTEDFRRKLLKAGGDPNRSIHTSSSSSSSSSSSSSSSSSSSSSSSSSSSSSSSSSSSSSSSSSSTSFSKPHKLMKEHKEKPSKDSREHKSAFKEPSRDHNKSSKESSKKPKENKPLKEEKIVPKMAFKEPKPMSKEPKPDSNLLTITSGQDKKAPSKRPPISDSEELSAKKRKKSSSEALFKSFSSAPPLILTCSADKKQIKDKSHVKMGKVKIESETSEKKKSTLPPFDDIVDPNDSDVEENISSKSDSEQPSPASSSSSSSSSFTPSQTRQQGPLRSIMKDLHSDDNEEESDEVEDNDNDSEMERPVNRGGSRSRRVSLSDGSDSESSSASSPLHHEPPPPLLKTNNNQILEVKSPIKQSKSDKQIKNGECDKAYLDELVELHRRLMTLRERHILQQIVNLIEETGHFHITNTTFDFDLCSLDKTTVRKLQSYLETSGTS
FGF22 binding = FGF22 (human) thermal shift binding | recombinant FGF22 thermal shift, SYPRO orange fluorescence; percent of sucrose octasulfate shift, DMSO zero | Q9HCT0 | 340,000 tested, 1.5% active | calls only at 9.99 µM;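 active means melting point raised past a set limit in the mean and every replicate; inconclusive means no clear call; three in four hits are not shown here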
Target sequence (Q9HCT0 whole entry, looked up): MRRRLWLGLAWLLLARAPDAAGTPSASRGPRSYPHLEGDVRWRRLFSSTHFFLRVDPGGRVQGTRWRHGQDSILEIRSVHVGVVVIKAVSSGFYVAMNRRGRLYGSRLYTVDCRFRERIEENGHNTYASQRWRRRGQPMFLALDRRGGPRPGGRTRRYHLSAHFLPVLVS
T cruzi repl = blocks replication of Trypanosoma cruzi; 300,000 tested, 1.4% active; inhibition, % (concentration not given with the values); T. cruzi beta-gal in NIH3T3, luminescence, 90 h;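 active means mean inhibition across valid replicates above about 55%, limit read from the data; inconclusive means mean below that limit but half or more replicates reach it; inactive means mean below it, under half of replicates reach it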;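 further: signal also drops with host cell toxicity which is not excluded here; 0% = plate median of DMSO wells and 100% = zero luminescence signal; higher percent means less beta-gal luminescence so fewer parasites; stock transfer was 50 nL into about 50 µL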
Beta apoptosis = beta cell apoptosis inhibition; 300,000 tested, 0.8% active; INS-1E cytokine-induced death, ATP luminescence, 48 h; percent of positive-control rescue, neutral wells zero; protection from apoptosis, % (no concentration beside the values);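 active means all replicates at 75% or more, or half of them and the mean; inconclusive means half reach 75% but not the mean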;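 further: 0% = cytokine-treated negative control wells and 100% = positive control rescue; higher means more ATP so stronger rescue from cytokine killing; wells of about 40 µL received 100 nL stock; the first replicate is given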
Calb FLC = C. albicans growth modulation with fluconazole; C. albicans CaCi-2 (fluconazole-resistant clinical isolate) + fluconazole, Alamar Blue growth, 48 h; growth inhibition, % (concentration not given with the values); 300,000 tested, 0.57% active; AID 1979;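 active means most replicates above 75%; inconclusive means exactly half above 75%; inactive means most below 75%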;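 further: all wells also contain fluconazole at 8 µg/ml as a sub-toxic cotreatment; 0% = median of DMSO wells and 100% = median of geldanamycin control wells; wells of about 8 µL received 7.5 nL stock; the first replicate is given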
RanGTP-Impb inh = inhibitors of RanGTP-importin-beta interaction, primary screen, biochemical, FRET, CFP-Ran, YFP-importin-beta, homogeneous; cell-free CFP-Ran/YFP-importin-beta FRET ratio; inhibition, % (concentration not given with the values); 300,000 tested, 1.1% active; AID 2216;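 active means most replicates above 15%; inconclusive means exactly half above 15%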;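 further: 0% = DMSO wells and 100% = Ran loaded with GDP instead of GTP; wells of about 40 µL received 100 nL stock; the first replicate is given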
Ecoli rRNA inh OD600 = further read-out of Ecoli rRNA inh, marked with its call; OD600 change, %; measured here: OD600 growth;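 optical density of the mix in the first replicate; 0 = DMSO median and -100 = no signal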
Ecoli rRNA inh RFP = second read-out of Ecoli rRNA inh, no call of its own (marks repeat the call); RFP signal change, %; measured here: RFP humanized mutant strains;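 first replicate; 0 = DMSO median and -100 = no signal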
Numbers without * were called inactive; i = inactive; u = inconclusive; x = no result given. Only part of the results is shown (hit frequency here may not be typical).

SMILES	ALR H2O2 inh	Ecoli rRNA inh	Ecoli rRNA inh OD600	Ecoli rRNA inh RFP	MLL AF4-AF9 inh	FGF22 binding	T cruzi repl	Beta apoptosis	Calb FLC	RanGTP-Impb inh
COc1ccc(CC(=O)Nc2ccccc2C(C)=O)cc1S(=O)(=O)N1CCOCC1	x	0	-1	1.0	0.0	i	13	9	3	1.1
Cc1cccc(C)c1OCC(=O)Nc1ccc(NC(=O)c2ccco2)cc1	-8	-1	7	-1.1	-2.8	i	-8	3	-17	13
CN(Cc1ccccc1)C(=O)COC(=O)Cc1ccc(Cl)cc1	0	-1	-14	2.6	-0.7	i	x	2	x	x
COC(=O)C1CCN(C(=O)/C=C/c2ccc3c(c2)OCO3)CC1	-15	4	-2	0.3	0.6	i	-7	3	1	-2.0
CC(=O)N1CCC2(CC1)C(C#N)=C(N)OC1=C2C(=O)CC(C)(C)C1	-1	x	x	x	x	x	-5	-3	0	7.5
O=C(Oc1ccc2ccc(=O)oc2c1)c1cccs1	5	x	x	x	-1.9	i	-13	0	-4	2.2
Cc1nn(CCO)c(N)c1C1(O)C(=O)Nc2c(Cl)cc(Cl)cc21 (stereo not drawn)	4	3	4	2.0	-1.6	i	-12	-17	6	u
O=C(c1ccc2c(=O)n(Cc3ccccc3)c(=S)[nH]c2c1)N1CCCC1	36	4	13	-3.9	-4.8	i	3	2	5	0.3
CCCc1c(C(=O)Nc2cc(C)on2)cnn1-c1ccccc1	20	13	-8	0.2	-1.3	i	-3	0	1	-2.5
COC(=O)c1c(NC(=O)C(=O)N2CCCCC2)sc2c1CC(C)(C)OC2	0	-2	-22	-6.1	-1.0	i	-1	3	3	0.6
COc1ccc(NC(=O)Nc2cc3oc4ccccc4c3cc2OC)cc1	0	13	8	-2.9	-1.6	i	48	4	4	0.3
Cc1nc2ccccc2nc1OCC(=O)Nc1ccc(F)cc1	2	10	19	-0.9	-0.9	i	-11	-3	-19	0.0
COc1cc(C2c3c(-c4ccccc4)n[nH]c3C(=O)N2c2ccccc2)ccc1O (stereo not drawn)	29	x	x	x	x	x	-8	8	13	-2.4
CCC1CCCCN1C(=O)CSc1nnc(CNC(=O)COc2ccc(Cl)cc2)o1 (stereo not drawn)	0	x	x	x	x	x	6	2	0	3.4
O=C(COC(=O)c1nc(Cl)ccc1Cl)NCCc1ccccc1	1	3	-2	0.4	-0.6	i	-8	-2	-3	4.3
CCS(=O)(=O)N1Cc2ccccc2CC1C(=O)NCc1cccc(OC)c1 (stereo not drawn)	-19	10	5	0.3	-2.4	i	1	3	10	-0.5
CC1=C(C)/C(=N/OC(=O)c2cccc([N+](=O)[O-])c2)C=CC1=O	x	x	x	x	x	x	-27	-73	68	0.4
CC(C)CCC(CC(C)O)c1n[nH]c(=S)n1-c1ccccc1 (stereo not drawn)	x	x	x	x	x	x	11	-9	1	-1.9
CC(=O)c1ccc(NS(=O)(=O)c2ccc3c(c2)N(C)CCO3)cc1	9	-1	-1	4.4	-0.3	i	-7	-1	12	4.0
Cc1ccc2c(c1)cc1c(=O)n(CC(=O)N(C)c3ccccc3)nc(C)n12	-4	10	5	1.0	-0.2	i	1	6	-3	0.4
CCCNC(=O)c1c(C)cc(=O)oc1C	36	x	x	x	x	x	-1	-3	8	0.1
O=C(Nc1ccc(OC(F)(F)F)cc1)C1=NCCN1	-1	x	x	x	x	x	-17	0	-6	-1.0
COc1cccc(CNc2nc3ccccc3n2CCN2CCCCC2)c1	99*	x	x	x	x	x	16	7	4	5.8
Cn1nc(C(F)(F)F)c(C(=O)Nc2ccc(F)cc2F)c1Sc1cccc(C(F)(F)F)c1	-15	x	x	x	x	x	16	1	0	5.7
CCNC(=O)N1c2ccc(OCC)cc2C(C)=CC1(C)C	88*	x	x	x	x	x	15	-2	34	1.9
CNCC(O)CN1CCN(c2ccccc2OC)CC1 (stereo not drawn)	52	0	-1	-2.1	-6.7	i	27	-1	-4	-2.7
O=[N+]([O-])c1ccc(N2CCOCC2)cc1NCCCO	-2	-1	2	-0.8	0.6	i	8	-13	-6	-3.1
Cn1ncc2nc[nH]c(=O)c21	0	x	x	x	x	x	-7	-3	1	2.2
O=C(COC(=O)CNC(=O)c1ccc(Cl)cc1)Nc1ccc(Cl)cn1	-1	3	5	0.3	-2.7	i	x	-1	x	x
O=c1c(-c2ccccc2)c(O)nc2ccccn12	-9	3	-2	-1.6	-1.0	i	-16	-3	-5	0.4
C=C(C)c1cccc(C(C)(C)NC(=O)N(C)C2CCN(C)CC2)c1	x	4	2	1.7	-3.1	i	46	x	0	-1.1
O=C1CC(c2cccs2)CC(O)=C1C=NCCN1CCNCC1 (stereo not drawn)	-7	7	10	-0.7	-41	i	-4	-2	4	8.1
O=[N+]([O-])c1cc(Cl)ccc1NCCc1ccccn1	x	-13	-21	-1.1	16	i	0	2	25	2.5
COc1ccc(S(=O)(=O)N2CCNC(=O)CC2)cc1	-3	12	11	3.3	-2.7	i	0	x	0	4.2
COc1ccc2cc(C3C(C#N)=C(N)OC(C)=C3C(C)=O)c(Cl)nc2c1 (stereo not drawn)	96*	-5	-11	14	4.4	i	0	x	15	-2.3
CCN(CC)S(=O)(=O)c1ccc(C(=O)Oc2coc(CSc3nc(C)cc(C)n3)cc2=O)cc1	12	x	x	x	x	x	-12	-3	-9	-1.4

Compound profiles, from the list above. Order of screens: ALR H2O2 inh | Ecoli rRNA inh | Ecoli rRNA inh OD600 | Ecoli rRNA inh RFP | MLL AF4-AF9 inh | FGF22 binding | T cruzi repl | Beta apoptosis | Calb FLC | RanGTP-Impb inh
`O=C(COC(=O)CNC(=O)c1ccc(Cl)cc1)Nc1ccc(Cl)cn1` as listed: -1 | 3 | 5 | 0.3 | -2.7 | i | x | -1 | x | x
`CCN(CC)S(=O)(=O)c1ccc(C(=O)Oc2coc(CSc3nc(C)cc(C)n3)cc2=O)cc1` as listed: 12 | x | x | x | x | x | -12 | -3 | -9 | -1.4
`C=C(C)c1cccc(C(C)(C)NC(=O)N(C)C2CCN(C)CC2)c1` as listed: x | 4 | 2 | 1.7 | -3.1 | i | 46 | x | 0 | -1.1

More structures
SMILES	ALR H2O2 inh	Ecoli rRNA inh	Ecoli rRNA inh OD600	Ecoli rRNA inh RFP	MLL AF4-AF9 inh	FGF22 binding	T cruzi repl	Beta apoptosis	Calb FLC	RanGTP-Impb inh
OCCC1CN(Cc2cnc(-c3ccc(Cl)cc3)nc2)CCN1C1CCCC1 (stereo not drawn)	x	9	0	6.9	-2.0	x	17	-2	-6	-4.2
CCc1sc(C(=O)Nc2ncccc2C)cc1C	-2	0	1	-0.3	-0.3	i	-7	-2	-1	-1.3
CCOC(=O)N1CCN(CCC(=O)Nc2ccc(OC)cc2OC)CC1	-4	5	-1	1.0	-3.7	i	0	4	11	-0.5
O=C(Nc1ccccc1)c1cccc(N2C(=O)CCC2=O)c1	-5	x	x	x	x	x	-21	-1	-1	4.2
Cc1ccn2cc(CCNS(=O)(=O)c3ccc4c(c3)CCCC4)nc2c1	x	-3	-18	6.8	-3.6	i	5	-1	-5	4.0
O=C(CCS(=O)(=O)c1ccccc1F)Nc1ccc(N2CCN(Cc3ccccc3)CC2)cc1	6	-1	11	-0.9	6.4	i	x	2	x	x
C=C(C)CN(CC)C(=O)CC1C(=O)NCCN1CC(C)(C)C (stereo not drawn)	-19	6	7	14	-4.1	i	-11	-8	-9	-1.3
CCOC(=O)CN(C(=O)CN1CCC(n2nnc3cc(C)ccc32)CC1)c1ccccc1	-3	x	x	x	x	x	8	12	-2	1.1
Cc1ccc(-c2c(C(=O)NCc3ccccc3)oc(=O)c3ccccc23)cc1	-3	-10	-10	0.1	-8.7	i	5	0	9	u
CC(=O)NNc1ncnc2c1cnn2-c1ccc(C)cc1	x	-2	10	-0.8	-0.2	i	-8	-4	17	9.0
O=C1c2cccnc2-c2ncccc21	x	x	x	x	x	x	-10	-2	0	3.2
CCOc1ncccc1C(=O)N(C)CC(=O)Nc1ccc(C)cc1	-2	14	11	2.3	-7.7	i	-38	1	-4	-2.4
CC(C(=O)Nc1ccc2c(c1)OCO2)c1ccc([N+](=O)[O-])cc1 (stereo not drawn)	-7	x	x	x	x	x	5	0	-20	4.2
CC(C)CCn1nnnc1C(C(C)C)N1CCC(C(N)=O)CC1 (stereo not drawn)	-3	x	x	x	x	x	-7	16	14	2.9
COc1ccc2c(c1)-c1nc(N)sc1CC2	51	-22*	-13*	-3.5*	11	i	-3	-9	58	7.3
Cc1nc(S/C(=C/c2ccc(-c3cc(Cl)ccc3C)o2)C(=O)O)n[nH]1	4	-6	0	-4.6	-12	i	9	-7	0	-13
Cc1cc(NC(=O)CCC(=O)N(c2cccc(F)c2)C(C(=O)NC2CCCC2)c2ccccc2)no1 (stereo not drawn)	x	20	6	2.0	-0.1	i	3	7	2	0.1
Fc1ccc(CSc2nnc3ccc(-c4ccncc4)nn23)cc1	-8	-1	-5	-9.9	-38	i	16	-3	18	3.2
Cc1ccc(S(=O)(=O)n2nc(OC(=O)c3ccco3)cc2N)cc1	98*	x	x	x	x	x	-7	-9	4	3.1
O=C1CC(N2CCOCC2)C(=O)N1CCN1C(=O)CC(N2CCOCC2)C1=O (stereo not drawn)	19	x	x	x	x	x	-8	-1	-2	-4.0
Cc1cccc(NC(=S)N2CCC(C(=O)c3ccc(F)cc3)CC2)c1C	-4	1	0	2.2	1.3	i	3	2	-25	-2.2
O=C(NCCOC(=O)c1ccc(Cl)cc1)c1cccnc1	-3	x	x	x	x	x	-2	0	4	4.3
CN(c1ccccc1)c1ccc(/C=N/NC(=O)CC#N)cc1	11	x	x	x	x	x	-1	0	u	-2.9
COc1ccccc1NC(=O)C(C)N1C(=O)C2CCCCC2C1=O (stereo not drawn)	-5	5	5	0.1	1.6	i	x	0	x	x
COc1ccc2c(c1)CCc1cc(C(=O)N3CCN(c4ccc(N5CCOCC5)nn4)CC3)sc1-2	-53	x	x	x	x	x	18	x	25	0.6
Cc1ccc(-c2nc(-c3ccc(Cl)cc3)sc2CC(=O)O)c(C)c1	99*	-34	-35	-3.2	-3.3	x	-15	-7	68	2.1
Cc1ccc(S(=O)(=O)NCCNC(=O)C2CCCNC2=O)cc1 (stereo not drawn)	0	x	x	x	x	x	-5	-2	-4	1.1
O=C(CCCc1ccccc1)NCCCc1ccccc1	-6	4	3	-0.8	0.3	i	-8	x	-8	-1.6
Cc1ccccc1/C(N)=N/OC(=O)c1ccc(F)cc1	6	8	6	-2.0	0.9	i	12	x	15	-0.6
O=C(/C=C/c1ccc(F)cc1)N1CCN(Cc2ccccc2)CC1	-9	-13	-18	-1.6	1.6	i	3	2	30	0.5
Cc1ccc(S(=O)(=O)NCCCCCC(=O)NCCc2ccccc2)cc1	-4	-15	-5	-0.3	-1.3	i	-1	-3	-2	-2.6
O=C(COc1ncnc2ccccc12)c1ccc(Cl)cc1	-3	4	6	0.5	-0.3	i	10	0	-5	-1.3
O=C(CN1CCN(Cc2ccc(F)cc2)CC1)NCCc1ccccc1	x	10	9	2.7	-9.0	i	21	-2	0	0.3
C/C(=N\NC(=S)NCc1ccccc1)c1ccccc1F	2	-23	-20	2.6	5.0	i	-48	x	-44	1.1
